Arbovirus inh – antivirals against arbovirus infection, primary screen, cell-based, full library, 10K replicate subset; arbovirus infection cell-based antiviral screen; inhibition, % at 10 µM; 0.37% of 200,000 active; AID 1251, 2008;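 active = inhibition from about 30%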;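 note: bluetongue infection of BSR cells; cell survival read as ATP light after 72 h; 0% = infected wells without compound and 100% = uninfected wells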
Mtb growth – M. tuberculosis H37Rv growth inhibitors, H37Rv strain (AID 1626); M. tuberculosis H37Rv growth inhibition; higher % means a stronger effect; inhibition, % at 10 µM, or IC50 in µM where a hit was titrated; 0.95% of 220,000 active;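 active = confirmed in a dose series; inconclusive = inhibition above 80% but not taken into the dose series; inactive = below 80% or under 30% at every dose of the series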;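 note: bacteria incubated seven days before Alamar blue readout; 0% = bacteria only wells and 100% = bacteria with antibiotic wells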
YopH inh – YopH tyrosine phosphatase inhibitors, primary screen, biochemical, fluorescence Ex485/Em525 | inhibition, %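 (about 10 µM by stock and volumes)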 | 0.16% of 140,000 active | YopH tyrosine phosphatase [Yersinia enterocolitica];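 active = inhibition of 50% or more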;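 note: controls were vehicle for no effect and minimum signal wells for full effect; inactives centre near -20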
RecA intein inh – Mtb RecA intein splicing inhibitors, primary screen, biochemical, fluorescence, HTS. cell-free RecA intein splicing. 0.75% of 290,000 active. inhibition, %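 (about 9 µM by stock and volumes)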. Protein RecA (Mycobacterium tuberculosis (strain ATCC 25618 / H37Rv)), P9WHJ3. AID 2221, 2009; in the data active = inhibition above about 30%; inconclusive = no clear call, values can overlap the other calls;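 note: 0% = vehicle wells and 100% = reference inhibitor control wells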
Target sequence (P9WHJ3 whole entry, looked up): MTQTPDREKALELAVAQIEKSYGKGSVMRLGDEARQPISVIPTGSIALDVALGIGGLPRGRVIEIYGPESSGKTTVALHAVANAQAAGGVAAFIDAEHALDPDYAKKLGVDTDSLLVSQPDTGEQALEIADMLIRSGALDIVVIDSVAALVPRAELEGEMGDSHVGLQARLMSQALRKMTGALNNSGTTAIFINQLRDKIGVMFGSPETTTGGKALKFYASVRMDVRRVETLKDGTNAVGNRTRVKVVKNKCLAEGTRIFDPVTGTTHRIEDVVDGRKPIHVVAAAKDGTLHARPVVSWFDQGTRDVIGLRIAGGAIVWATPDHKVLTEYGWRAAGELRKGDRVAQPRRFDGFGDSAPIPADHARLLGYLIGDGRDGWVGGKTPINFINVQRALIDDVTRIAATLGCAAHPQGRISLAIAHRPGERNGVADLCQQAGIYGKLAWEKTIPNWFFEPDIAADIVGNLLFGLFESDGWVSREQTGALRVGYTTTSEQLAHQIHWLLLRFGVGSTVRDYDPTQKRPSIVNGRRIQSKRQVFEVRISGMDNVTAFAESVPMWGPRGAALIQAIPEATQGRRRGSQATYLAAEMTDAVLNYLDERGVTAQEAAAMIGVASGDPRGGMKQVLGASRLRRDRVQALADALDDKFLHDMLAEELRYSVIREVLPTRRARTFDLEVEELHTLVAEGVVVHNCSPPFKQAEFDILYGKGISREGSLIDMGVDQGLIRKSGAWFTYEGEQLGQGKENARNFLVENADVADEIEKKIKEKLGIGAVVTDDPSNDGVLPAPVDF
Mtb bLac sens – beta-lactam sensitization of Mtb H37Rv, H37Rv. M. tuberculosis H37Rv growth with meropenem, percent inhibition; hits of this screen are not shown here. inhibition, % at 25 µM. 0.27% of 330,000 active;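 active = about 74% or more and at least 40 points above the plate without the antibiotic, then above 30% in a dose series; inconclusive = first-round hits that could not be retested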;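 note: growth measured after seven days incubation then overnight dye step; 0% = bacteria only wells and 100% = bacteria with antibiotic; twin plates without the antibiotic show which effects depend on it; some results filed as inactive read as strong as hits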
Arbovirus inh repeat – also measured in Arbovirus inh; calls as there; inhibition, %; measured here: 10K subset replicate screen; many hits read low in the repeat;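 first of two repeat runs on a subset; 0% = infected and 100% = uninfected wells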
* = called active by the depositor; ? = inconclusive; · = no result given.

The opening four compounds, ahead of the listing:
SMILES	Arbovirus inh	Mtb growth	YopH inh	RecA intein inh	Mtb bLac sens	others
Cc1ccccc1/[N+]([O-])=C/c1cccs1	-1	2%	·	-1.5	-11
CSc1nc(C)c(C(=O)Nc2ccccc2)c(C)c1C#N	3	-2%	-34	-0.5	6
CCOc1cc2[nH]c(=S)n(CCN3CCCCC3CC)c(=O)c2cc1OCC (stereo unspecified)	-5	-3%	5	-0.8	4
COCCNC(=O)c1ccccc1NC(=O)Nc1ccccc1	1	-4%	·	1.5	-8

Main list, repeating the preview:
SMILES	Arbovirus inh	Mtb growth	YopH inh	RecA intein inh	Mtb bLac sens	others
Cc1ccccc1/[N+]([O-])=C/c1cccs1	-1	2%	·	-1.5	-11
CSc1nc(C)c(C(=O)Nc2ccccc2)c(C)c1C#N	3	-2%	-34	-0.5	6
CCOc1cc2[nH]c(=S)n(CCN3CCCCC3CC)c(=O)c2cc1OCC (stereo unspecified)	-5	-3%	5	-0.8	4
COCCNC(=O)c1ccccc1NC(=O)Nc1ccccc1	1	-4%	·	1.5	-8
CC(=O)N1CCN(Cc2nc3cc(NC(=O)c4ccc(Cl)cc4)ccc3n2C)CC1	4	-19%	-26	·	-2
Cc1nc2nc(SCC(N)=O)[nH]c2cc1Br	0	-2%	-15	-0.6	4
CCc1nnc(NC(=O)CCNC(=O)c2ccco2)s1	·	·	·	-1.8	-2
O=C(c1ccc(CSc2nc3ccncc3[nH]2)cc1)N1CCCCC1	-1	·	-33	-0.5	1
O=C(Nc1ccc(N2CCN(C(=O)c3ccccc3)CC2)c(Cl)c1)c1cccnc1	7	-1%	-22	-0.7	0
CC(C)CCNC(=S)Nc1ccc2nc3n(c(=O)c2c1)CCCCC3	-4	-1%	-17	-0.7	0
CCC(C)(C(=O)NC1CCCCC1)N(C(=O)c1ccccn1)c1ccc(C)cc1 (stereo unspecified)	0	-4%	-18	-1.6	?
OC(COc1ccc(OCc2ccccc2)cc1)CN1CCOCC1 (stereo unspecified)	0	8%	-13	-0.1	5
Cc1cccc(NC(=O)c2ccc3[nH]c(=O)c(=O)[nH]c3c2)n1	·	·	·	3.3	6
CC(C)OCCCn1c(SCC(=O)Nc2ccccc2C(F)(F)F)nc2nccnc2c1=O	·	·	·	-0.8	-2
Cc1ccc(SCC(=O)NCCCN2CCOCC2)cc1	2	3%	-37	4.4	-7
COc1ccc(C2NCCC3(O)CCCCC23)c(OC)c1OC (stereo unspecified)	10	-6%	-42	-1.8	-19
COc1ccc(CCNC(=O)c2ccc(CS(=O)Cc3ccc(Cl)cc3)o2)cc1OC (stereo unspecified)	·	·	·	1.4	1
Cc1occc1C(=O)N1N=C(C2CC2)CC1(O)C(F)(F)F (stereo unspecified)	-5	-2%	-1	·	-5
COc1cc2ccccc2cc1C(=O)Nc1ccc(C)cc1	·	·	·	1.4	94
O=S1(=O)C=C(SCCN2CCCCC2)c2ccccc21	9	0%	-22	-2.0	-3	Arbovirus inh repeat=4
CCc1nn(C(C)C(=O)N2CCN(c3ccc(OC)cc3)CC2)c(=O)c2cc3occc3n12 (stereo unspecified)	·	·	·	-1.3	0
CCOc1nc2c(c(=O)n(C)c(=O)n2C)n1Cc1ccccc1Cl	11	2%	-4	1.1	0
COc1ccc(N2C(=O)CC(NNC(=O)c3cc(C)oc3C)C2=O)cc1 (stereo unspecified)	2	-2%	·	-0.6	-4
O=C(NCCCN1CCOCC1)/C(=C/c1ccco1)NC(=O)c1ccccc1	·	·	·	1.3	-4
Cc1ccc(OCc2ccc(C(=O)NN)o2)c([N+](=O)[O-])c1	·	-10%	·	2.0	-8
SMILES	Arbovirus inh	Mtb growth	YopH inh	RecA intein inh	Mtb bLac sens	others
O=C(NCCCn1ccnc1)c1cc(-c2cccnc2)nc2ccc(Br)cc12	-6	2%	·	-1.0	-24
Cc1nnc(SCC(=O)Nc2nccs2)n1C(C)C	·	·	·	-1.8	-5
O=C(CNC(=O)c1ccc(Br)o1)NCC(=O)OCc1ccccc1	·	·	·	2.0	-2
Cc1cc(SCC#N)n2nc(C)c(-c3ccccc3)c2n1	-7	3%	-52	-0.1	20
O=C(Nc1ccc2nc3n(c(=O)c2c1)CCCCC3)C(=O)N1CCN(c2ccc(F)cc2)CC1	·	·	·	-1.7	7
O=C(OCc1nc2ccsc2c(=O)[nH]1)c1ccc(Cl)nc1	·	·	·	0.5	-6
C[C@H](NC(=O)N1CCn2c1nc1ccccc12)C(=O)NCCc1ccccc1	·	·	·	0.5	0
CCCCCCCCCc1nc(N)n[nH]1	13	·	-32	-2.3	1
O=c1cc(CSc2ccc(Cl)cc2)[nH]c2[nH]n(-c3ccccc3)c(=O)c12	·	-4%	·	6.5	1
CCn1c(SCc2nc3ccccc3c(=O)[nH]2)nc2ccccc2c1=O	-14	-5%	4	·	-13
O=C(c1ccc(F)cc1)N1CCCCC(Sc2nnc3ccccn23)C1=O (stereo unspecified)	4	-3%	-25	2.1	-2
Cc1cccc(NC(=O)Cn2nnc3ccccc32)c1	5	3%	·	1.7	0
Cc1cccc(-n2ccc(=O)c(C(=O)Nc3ccc(S(=O)(=O)Nc4nccc(C)n4)cc3)n2)c1	·	·	·	-0.2	13
O=C(O)c1cc2c(cn1)[nH]c1ccccc12	·	·	·	-23	-2
COc1ccc(CC(=O)N2CCNC2=O)cc1	6	-3%	-18	-0.7	-13
CC1(C)Cc2c(sc3nc(-c4ccccc4Cl)n(N)c(=O)c23)CO1	0	-1%	-22	-1.1	-4
O=C(COc1ccc2c(c1)OCO2)Nc1ccc(Cl)cn1	·	·	·	12	-1
Cc1nn(C)c(C)c1S(=O)(=O)N1CCCC(C(=O)NC2CCCCC2)C1 (stereo unspecified)	-2	1%	-34	-0.3	-6
CC(=O)c1ccc(N2CCN(C(=O)c3noc4c3CSc3ccccc3-4)CC2)cc1	·	·	·	0.5	90
CCN(CC(=O)Nc1ccccc1C(F)(F)F)C(=O)CSCC(=O)Nc1cc(C)on1	·	·	·	-0.6	-16
CC[C@H]1OC(=O)[C@H](C)[C@@H](O[C@H]2C[C@@](C)(OC)[C@@H](O)[C@H](C)O2)[C@H](C)[C@@H](O[C@@H]2O[C@H](C)C[C@H](N(C)C)[C@H]2O)[C@](C)(O)C[C@@H](C)CN(C)[C@H](C)[C@@H](O)[C@]1(C)O	·	5%	·	-2.6	48
CCn1c(SCC(=O)c2ccc(Br)cc2)nnc1C(C)NC(=O)Cc1ccc(OC)cc1 (stereo unspecified)	2	-1%	6	-0.3	3
COc1cnc(-c2ccccn2)nc1Sc1ccc(C)cc1	-27	<0.2µM*	·	1.7	85
Cc1ccc(C2=NS(=O)(=O)N(C)C(C(=O)N3CCOCC3)=C2)cc1	·	·	·	3.4	-1
O=C(NCc1ccccc1Cl)C1CCCN1S(=O)(=O)c1ccccc1F (stereo unspecified)	·	·	·	1.0	-2

Looked up by structure from the entries so far:
SMILES	Arbovirus inh	Mtb growth	YopH inh	RecA intein inh	Mtb bLac sens	others
CCN(CC(=O)Nc1ccccc1C(F)(F)F)C(=O)CSCC(=O)Nc1cc(C)on1	·	·	·	-0.6	-16
O=C(O)c1cc2c(cn1)[nH]c1ccccc12	·	·	·	-23	-2
Cc1nn(C)c(C)c1S(=O)(=O)N1CCCC(C(=O)NC2CCCCC2)C1 (stereo unspecified)	-2	1%	-34	-0.3	-6
CCCCCCCCCc1nc(N)n[nH]1	13	·	-32	-2.3	1

New compounds follow.
SMILES	Arbovirus inh	Mtb growth	YopH inh	RecA intein inh	Mtb bLac sens	others
COC(=O)c1ccccc1C(=O)N(Cc1cccnc1)CC1CCCN(C2CCCCC2)C1 (stereo unspecified)	·	·	·	-1.4	-7
CSCCC(NS(=O)(=O)c1ccc(Cl)cc1)C(=O)OCC(=O)c1ccc(F)cc1 (stereo unspecified)	1	-7%	-16	2.1	12
Cc1ccc(-c2nc(CS(=O)(=O)CC(=O)N3CCc4ccccc4C3)c(C)o2)cc1	10	8%	2	2.8	1	Arbovirus inh repeat=7
COc1ccc(OC)c(NS(=O)(=O)c2ccc3c(c2)C(C)(C)C(=O)N3C)c1	·	·	·	0.5	0
COc1ccc(OC)c(C2c3c(oc4ccccc4c3=O)C(=O)N2CCCN(C)C)c1 (stereo unspecified)	0	-4%	-20	-1.5	7
CCOC(=O)COc1ccccc1/C=C1/NC(=O)NC1=O	-6	-2%	-40	0.3	0
CCOc1ccccc1N(CC(=O)NC1CCCCC1)S(=O)(=O)c1ccccc1	·	·	·	0.7	-3
CCOC(=O)c1cnc2ccccc2c1NCCO	3	2%	-37	0.6	-8
CC(Sc1ncnc2sc(-c3ccccc3)cc12)C(=O)NCC1CCCO1 (stereo unspecified)	·	·	·	1.2	-8
CCN(CC)Cc1c(C(=O)N/N=C/c2cccs2)nnn1-c1nonc1N	·	·	·	-5.2	1
O=C(N/C(=C/c1cccnc1)C(=O)N1CCOCC1)c1ccccc1Cl	·	-5%	·	-0.2	-4
O=C(OCC(=O)N1CCCC1)c1cc([N+](=O)[O-])ccc1Cl	·	·	·	0.3	21
COC(=O)CCC(=O)N1CCc2cc(S(=O)(=O)N3CCN(c4ccccc4Cl)CC3)ccc21	9	3%	-44	·	·
Cc1cc(C(=O)NC2CCCc3c2cnn3-c2ccccc2F)nc(C)n1 (stereo unspecified)	·	·	·	10	4
Cc1c(Cl)cccc1N1C(=O)NC(=O)/C(=C\c2cc(C)n(-c3cccc(C(=O)O)c3C)c2C)C1=O	·	·	·	-1.9	5
N#Cc1sc2nc(-c3cccs3)cc(-c3ccc(F)cc3)c2c1N	37*	4%	-29	-5.1	6
CCOC(=O)COc1ccc2c(c1)c(C(C)=O)c(C)n2-c1ccc(OC)cc1	·	·	·	0.4	99
N#Cc1ccc(-c2nc3ccc(Br)cc3c(=O)n2O)cc1	·	·	·	-1.7	83
Cc1cc(C(=O)N/N=C/C(Cl)=C/c2ccccc2)c(C)o1	·	-9%	·	1.9	0
CC(C)CN1CCC(=O)N(CCC#N)CC1	·	·	·	-1.0	-1
CC(=O)c1ccc(NC(=S)NC(=O)/C=C/c2ccc(F)cc2)cc1	·	·	·	-2.7	3
CC(=O)c1ccc(NC(=S)N2CCN(c3cccc(Cl)c3)CC2)cc1	1	9%	·	-0.2	5
O=C(CCn1c(=O)c2cccn2c2cccnc21)NCc1cccc(Cl)c1	·	·	·	-0.6	2
CCCCCC(=O)Nc1ccc(C(=O)CN2C(=O)NC3(CCCCCC3)C2=O)cc1	·	·	·	-4.2	-6
CCOC(=O)/C(C#N)=C/c1c(N2CCN(c3ccc(OC)cc3)CC2)nc2c(C)cccn2c1=O	·	·	·	-1.6	36
SMILES	Arbovirus inh	Mtb growth	YopH inh	RecA intein inh	Mtb bLac sens	others
Cc1ccc(C(=O)NNC2=NC(C)(C)Cc3ccccc32)cc1	·	2%	·	3.2	-4
c1ccc(N2CCN(Cc3cn4cccnc4n3)CC2)cc1	7	-7%	-16	-3.0	6	Arbovirus inh repeat=0
O=C(NCc1ccc2c(c1)OCO2)C1CCC(CNS(=O)(=O)c2ccc(Cl)cc2)CC1 (stereo unspecified)	-3	4%	-8	-0.7	0
CCOC(=O)c1ccc(NC(=O)COC(=O)c2cccc(Oc3ccccc3)c2)cc1	2	?	-8	0.9	30
O=S(=O)(NC1CCCCCCC1)c1ccccc1	·	·	·	0.6	2
CCOC(=O)c1ccc(NC(=O)CSC(=S)N2CCOCC2)cc1	-1	16%	·	-4.0	30
O=C(O)Cn1c(SCCOc2ccccc2F)nc2ccccc21	7	-10%	-31	6.0	-1
COc1ccccc1Nc1nc2ccc(C)cc2n2cnnc12	·	·	·	-5.4	2
Cc1ccc(S(=O)(=O)N2CCC(C(=O)NCCC3=CCCCC3)CC2)cc1C	·	·	·	-4.3	6
CCOc1ccc(NS(=O)(=O)c2ccc3c(c2)CCN3C(=O)C2CCC2)cc1	-5	-5%	-11	-0.6	7
COc1ccccc1NC(=O)CSc1nncn1N	·	·	·	0.9	6
Nc1c(C(=O)NCc2ccco2)nnn1CC(=O)Nc1ccccc1	5	-8%	-27	-3.1	-1
O=C(Nc1ccc(N2CCCC2)cc1)c1ccc2ccccc2c1	-3	3%	-20	1.0	2

The list is partial; rates above refer to the full screens.
